Mtb H37Rv: Mycobacterium tuberculosis H37Rv growth inhibition, cell based, confirmatory dose response (AID 1949); inhibition, % at 10 µg/mL; hits with a dose series show IC50 in µg/mL; 100,000 compounds, 1.6% hits; M. tuberculosis H37Rv growth inhibition; most inactive calls were filed without a number and no value below 0 was filed;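 active = confirmed in a dose series; inconclusive = about 50% or more but not retested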;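 also: bacteria grown 7 days with compound before Alamar blue readout; 0% = untreated bacteria and 100% = reference antibiotic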
* = called active by the depositor; i = inactive; ? = inconclusive. An excerpt; the hit share may differ from the screen's.

SMILES	Mtb H37Rv
CCOc1ccc(N(C2C=CS(=O)(=O)C2)S(=O)(=O)c2ccc(C)cc2)cc1 (stereo not drawn)	i
CC(C(=O)N1CCCCCC1)N(c1ccc(Oc2ccccc2)cc1)S(C)(=O)=O (stereo not drawn)	i
Cc1c(C(=O)NC2CC3CCC2C3)cccc1[N+](=O)[O-] (stereo not drawn)	1%
COc1cccc(OC)c1OCCOc1ccccc1Cl	i
Cc1cc(OCCNC2CCCC2)ccc1[N+](=O)[O-]	i
Clc1ccc(C2=CSC3=NCCCCN23)cc1Cl	i
O=C(Nc1ccc(-c2nc3ccccc3[nH]2)cc1)c1cncc(Br)c1	i
NC(=O)C1CCN(C(=O)CSc2ccc(Cl)cc2)CC1	i
O=C(Nc1ccc(Br)cc1)c1ccc(Cl)c(S(=O)(=O)N2CCOCC2)c1	i
Cc1cc(C)c2c(n1)nn1c(C)c(CCC(=O)O)c(C)nc21	i
CCOc1ccc(CN2CCC(C(=O)NCc3ccc(C)cc3)CC2)cc1	i
Cc1ccc(NC(=O)C2CCN(C(=O)c3ccccc3C)CC2)cc1Cl	1%
Cc1ccccc1NC(=O)c1c(NC(=O)CN2CCN(C)CC2)sc2c1CCC(C(C)(C)C)C2 (stereo not drawn)	40µg/mL*
COCCNCCOc1cc(C)cc(C(C)C)c1	i
Cn1c(SCc2ccc([N+](=O)[O-])cc2)nnc1-c1cccnc1	1%
CS(=O)(=O)N1CCC(C(=O)NCc2ccc(Cl)cc2Cl)CC1	i
CCOc1ccccc1N=C(C)c1c(-c2ccccc2)[nH]n(-c2nc3ccccc3s2)c1=O	i
O=C(C1CCCO1)N(Cc1ccccc1)c1ccccc1 (stereo not drawn)	i
O=C(c1oc2ccccc2c1N1CCCCC1)N1CCCCC1	4%
CCOC(=O)c1c(C)oc(C)c1CNC(N)=O	i
COc1ccccc1N1CCN(C(=O)CN(c2ccccc2Cl)S(C)(=O)=O)CC1	i
COc1c(Cl)cc(Cl)cc1CNCc1ccc(F)cc1	i
O=C(NC(=S)Nc1ccc(F)c([N+](=O)[O-])c1)c1cccc2c(Br)cccc12	i
COc1cc(/C=C/c2ccc3ccccc3n2)ccc1OC(C)=O	19%
Cc1ccc(S(=O)(=O)N(C)CCCC(=O)N2CCN(C=O)CC2)cc1	11%
CC(C)CNc1cc(Cl)c(S(=O)(=O)NCC(C)C)cc1C(=O)O	i
CSc1ccc(-c2nnn(CC(=O)NCc3ccccc3)n2)cc1	31%
Fc1ccc(N2CCN(C(=S)NCCc3ccccc3)CC2)cc1	i
Cc1ccc(S(=O)(=O)Nc2ccccc2CNc2cnc3ccccc3c2)cc1	i
O=C(NC1c2ccccc2-c2ccccc21)c1cccc([N+](=O)[O-])c1	i
Cc1ccc(N2C(=O)C(NC(=O)c3ccncc3)(C(F)(F)F)C3=C2CC(C)(C)CC3=O)cc1 (stereo not drawn)	i
O=C(CCC1CCCCC1)Nc1ccccc1[N+](=O)[O-]	2%
N/C(=N\OC(=O)c1cccc(Cl)c1)c1ccc([N+](=O)[O-])cc1	i
CCn1c(SCC(=O)Nc2ccc(F)cc2)nnc1-c1ccc(Br)cc1	i
COc1ccc(S(=O)(=O)N2CCC(C(=O)N3CCCC3)CC2)cc1Cl	i
Fc1ccc(NC(=S)NCCn2cc(Cl)cn2)c(F)c1	i
O=[N+]([O-])c1ccc(NCCNS(=O)(=O)c2ccc(Br)cc2)c(C(F)(F)F)c1	9%
CCCCNC(=O)c1ccccc1C(=O)NCCCC	0%
Cc1ccc(N/C(=N/c2nc3c(c(=O)[nH]2)CCCC3)NC(=O)c2ccccc2)c(C)c1	i
O=C(Nc1ccccc1F)c1cc(F)c(F)cc1Cl	i
COc1cc(OC)cc(-c2nnc(SCc3ccccc3)o2)c1	i
CCOc1ccc(C(C)NC(=O)c2ccccc2F)cc1 (stereo not drawn)	i
CC(NC(=S)NCc1ccc(F)cc1)c1ccncc1 (stereo not drawn)	i
Cc1ccc2c(Cl)c(C(=O)NCCc3ccccc3)sc2c1	2%
COc1ccc(CCNc2ncnc3sc4c(c23)CC(C)CC4)cc1OC (stereo not drawn)	36%
Cc1cc(OCCCN2CCCC(C)C2)cc(C(C)C)c1 (stereo not drawn)	5.8µg/mL*
COc1ccc(Br)cc1S(=O)(=O)N1CCN=C1c1ccccc1	i
COc1cccc(C2CC(C(F)(F)F)n3ncc(C(=O)Nc4ccc(Cl)cc4)c3N2)c1 (stereo not drawn)	i
CCCCc1ccc(NS(=O)(=O)c2ccc3c(c2)OCCO3)cc1	5%
O=C(c1ccc(Br)o1)N1CCN(C/C=C/c2ccccc2)CC1	i
Cc1cccc(N2C(=O)CC(N3CCC(c4nc5ccccc5[nH]4)CC3)C2=O)c1 (stereo not drawn)	i
CC(Sc1nc(-c2ccccc2)cc(C(F)(F)F)n1)C(=O)N1CCc2ccccc2C1 (stereo not drawn)	2%
O=C(O)C1CCCN1C(=O)c1ccc(C#CC2(O)CCCCC2)cc1 (stereo not drawn)	i
O=C(Nc1ncc(Cc2ccc(Cl)cc2Cl)s1)C1CCCCC1	i
NC(=O)c1ccccc1NC(=S)NC(=O)c1cc(Br)ccc1Cl	i
S=C(NC1CCCCC1)NC1CCN(Cc2ccccc2)CC1	i
Cc1ccc(-c2nnc(SCC(=O)Nc3ccccc3)c3ccccc23)cc1S(=O)(=O)N1CCOCC1	1%
O=C(Oc1cccc([N+](=O)[O-])c1)c1cc(-c2ccccc2)nc2ccccc12	i
O=c1c2ccccc2nc2n1-c1ccccc1CCC2	i
COc1ccc(S(=O)(=O)Nc2ccc(S(=O)(=O)Nc3ccc(Cl)cc3Cl)cc2)cc1	i

Later entries:
SMILES	Mtb H37Rv
O=C(CN1C(=O)c2cccc3cccc1c23)Nc1cccc2ccccc12	i
CC1CCc2c(sc3nc(SCC(=O)N4CCOCC4)n(-c4ccccc4)c(=O)c23)C1 (stereo not drawn)	i
CCC(NC(=O)Cn1cnc2c(=O)n(C)c(=O)n(C)c21)c1ccccc1 (stereo not drawn)	i
Nc1cc(S(=O)(=O)N2CCCC2)ccc1Cl	i
O=C(NC1(C(F)(F)F)NC(=O)N(C2CCCC2)C1=O)C1CC1 (stereo not drawn)	i
C=CCSc1nc2ccc(C)cc2[nH]1	i
Cc1cc(C)cc(C(=O)Nc2ccccc2N2CCN(C(=O)c3ccc(Cl)cc3)CC2)c1	3%
Cc1ccc(S(=O)(=O)N(CC(=O)Nc2cccc(C)c2C)Cc2ccccc2F)cc1	i
O=C(COc1cccc(C(F)(F)F)c1)Nc1ncc(Cc2ccc(Cl)cc2)s1	i
CC(=O)Oc1ccc(Cl)cc1/C=C/c1ccc2ccccc2n1	i
O=C(Nc1ccc(-c2nc3ccccc3o2)cc1)c1ccc(N2CCCCC2)c([N+](=O)[O-])c1	3%
COCCCNC(=O)c1c(NC(=O)c2ccccc2OC)sc2c1CCCC2	49%
C#CCSc1nc2ccccc2n1C(=O)c1ccc(S(=O)(=O)N2CCOCC2)cc1	2%
Cc1ccc(Sc2nc([N+](=O)[O-])nn2CC(=O)c2ccccc2)cc1	i
COC(=O)C(NC(=O)c1cccc([N+](=O)[O-])c1)C(C)C (stereo not drawn)	i
COC(=O)c1ccc(Nc2nc(N3CCOCC3)c3ccccc3n2)cc1	i
O=C(CN(Cc1ccc(Cl)cc1Cl)S(=O)(=O)c1ccccc1)Nc1cccc(F)c1	7%
CCCn1c(Cc2ccccc2)nnc1SCC(=O)Nc1ccccc1F	i
O=C(NCc1cccnc1)c1cc2nc(-c3ccco3)cc(C(F)(F)F)n2n1	i
CC(C)CC(=O)Nc1ccccc1N1CCN(C(=O)c2ccccc2)CC1	i
O=C(Cc1ccccc1)Nc1ccc(C(=O)Nc2ccc(O)cc2)cc1	i
CC(=O)Nc1ccc2c(c1)C(=O)N(C1CCCCC1)C2=O	i
O=S(=O)(NC(=S)NC1CCCCC1)c1cccs1	i
O=[N+]([O-])c1cccc(NC(=S)Nc2ccn(C34CC5CC(CC(C5)C3)C4)n2)c1	i
COc1ccc(NC(=O)CNS(=O)(=O)c2ccc(C)cc2)c(OC)c1	i
CCOc1ccc2ccc(OCC)c(/C=c3\sc4nc5ccccc5n4c3=O)c2c1	i
CC(Oc1ccc(Cl)cc1Cl)C(=O)Nc1ccccc1C(=O)O (stereo not drawn)	14%
CCC(=O)Nc1ccc2nc(SCc3ccccc3C#N)sc2c1	16%
O=C(Nc1cccc(C(F)(F)F)c1)c1ccccc1F	i
N#C/C(=C/c1cn(CC(N)=O)c2ccccc12)c1ccc(F)cc1	i
Clc1ccc(OCCCNCc2ccco2)cc1	i
COc1ccc(NC(=O)c2cnn(-c3ccccc3)c2NC(=O)c2ccc(Cl)cc2)cc1	20%
COC(=O)CSc1nc2c(c(-c3ccncc3)c1C#N)CCCC2	i
CCOc1ccccc1N1Cc2ccccc2C1	i
NC(=O)CSc1nc2scc(-c3ccccc3)c2c(=O)n1-c1ccccc1	i
COc1cc(/C=C2\C(=O)NC(=O)N(C)C2=O)cc(OC)c1OC	i
O=C(CSc1nc2scc(-c3cccs3)c2c(=O)n1-c1ccccc1)N1CCCCC1	0%
O=C(Nc1ccc(OCc2ccccc2)cc1)c1ccncc1	i
COc1ccc(CCNC(=O)CN(c2ccc(OC)c(OC)c2)S(=O)(=O)c2ccccc2)cc1OC	i
COc1ccccc1N1CCN(C(=O)COc2cc(C)cc(C)c2)CC1	0%
COC(=O)c1c(NC(=S)Nc2ccn(C34CC5CC(CC(C5)C3)C4)n2)sc2c1CCC2	i
NCCNC12CC3CC(CC(C3)C1)C2	0%
CCn1c(CNC(=O)c2cccc([N+](=O)[O-])c2)nnc1SCC(=O)Nc1cc(C(F)(F)F)ccc1Cl	0%
O=Cc1cc(Br)ccc1OC(=O)c1ccc(F)cc1	1%
CCOc1ccccc1N1CCN(C(=O)c2cc(OCC)c(OCC)c(OCC)c2)CC1	i
O=S(=O)(CCc1nnc(-c2ccccc2)o1)c1ccc(Cl)c(Cl)c1	3%
CCc1ccc(C(=O)NC(=S)Nc2ccc(Cl)cc2C(F)(F)F)cc1	2%
CCC(=O)Nc1ccccc1C(=O)NC1CCCCC1	i
COc1ccc(CCCc2nnc(SCC(=O)Nc3ccc(C)c(Cl)c3)o2)cc1	i
O=C(Cc1ccccc1[N+](=O)[O-])NCc1ccc(Cl)cc1Cl	i
Cc1ccc(CC(=O)NCc2ccccn2)cc1	i
C=CCOc1ccccc1C1NC(=O)NC(C)=C1C(=O)NCc1ccccc1 (stereo not drawn)	i
C=CCn1c(SCC(=O)Nc2ccc(Br)cc2F)nnc1-c1ccc(Cl)cc1	i
S=c1[nH]nc(C23CC4CC(CC(C4)C2)C3)n1-c1cccc(Cl)c1	i
Cc1cc(C(=O)Nc2c(C)cccc2C(C)C)ccc1[N+](=O)[O-]	5%
C/C=C/c1ccc(Oc2ccc(C(F)(F)F)cn2)c(OC)c1	i
O=C1CN(S(=O)(=O)c2ccc(NS(=O)(=O)c3ccc4ccccc4c3)cc2)CC(=O)N1	i
Cc1ccc(Oc2c(C(F)(F)F)oc3cc(OCC(=O)NCc4ccccc4)ccc3c2=O)cc1	1%
O=C(c1ccccc1)c1ccc(N2CCOCC2)c(NC(=O)c2ccccc2Cl)c1	i
CCOc1ccc(-c2nc(C#N)c(NCCOC)o2)cc1	i

4 of the compounds above, with each value named.
SMILES: Cc1ccc(CC(=O)NCc2ccccn2)cc1
  Mtb H37Rv = i

SMILES: C=CCOc1ccccc1C1NC(=O)NC(C)=C1C(=O)NCc1ccccc1 (stereo not drawn)
  Mtb H37Rv = i

SMILES: C=CCn1c(SCC(=O)Nc2ccc(Br)cc2F)nnc1-c1ccc(Cl)cc1
  Mtb H37Rv = i

SMILES: S=c1[nH]nc(C23CC4CC(CC(C4)C2)C3)n1-c1cccc(Cl)c1
  Mtb H37Rv = i

Part of the list above, in CSV form:
Structure,Mtb H37Rv
O=S(=O)(CCc1nnc(-c2ccccc2)o1)c1ccc(Cl)c(Cl)c1,3%
CCc1ccc(C(=O)NC(=S)Nc2ccc(Cl)cc2C(F)(F)F)cc1,2%
CCC(=O)Nc1ccccc1C(=O)NC1CCCCC1,i
COc1ccc(CCCc2nnc(SCC(=O)Nc3ccc(C)c(Cl)c3)o2)cc1,i
O=C(Cc1ccccc1[N+](=O)[O-])NCc1ccc(Cl)cc1Cl,i
Cc1ccc(CC(=O)NCc2ccccn2)cc1,i
C=CCOc1ccccc1C1NC(=O)NC(C)=C1C(=O)NCc1ccccc1 (stereo not drawn),i

Continuation:
SMILES	Mtb H37Rv
Oc1ccccc1-c1csc(Nc2ccccn2)n1	i
CC(C)CCOc1ccc(C(=O)NCCC(=O)N2CCOCC2)cc1	i
O=C(Nc1ccccc1I)c1ccc(-c2ccc([N+](=O)[O-])cc2)o1	i
Cc1cccc(C(=O)N2N=C(c3ccc(Br)cc3)CC2(O)C(F)(F)F)c1 (stereo not drawn)	?
CC1CCCC(C)N1C(=O)c1ccc(Cl)cc1 (stereo not drawn)	4%
N/C(=N\OC(=O)CCC1CCCCC1)c1cccnc1	i
COc1ccccc1NC(=O)CN(c1cc(Cl)ccc1OC)S(C)(=O)=O	4%
Cc1cc(OCC(=O)Nc2ccccc2I)ccc1Cl	i
COc1ccc(-n2c(-c3ccccc3)n[nH]c2=S)cc1	i
CCn1c(CCc2ccccc2)nnc1SCC(=O)c1ccc(Cl)cc1	i
CNC(=O)CN(c1cccc(Br)c1)S(C)(=O)=O	i
COc1ccc2c(c1)c(=O)oc1c(C)c(OC3CCCCC3=O)ccc12 (stereo not drawn)	i
Cc1occc1C(=O)Nc1nc(-c2ccc(Cl)cc2Cl)cs1	i
CCc1ccc(-c2nnc(-c3cccc([N+](=O)[O-])c3)o2)cc1	i
O=C1CC(N2CCC(c3nc4ccccc4[nH]3)CC2)C(=O)N1c1ccc(Br)cc1 (stereo not drawn)	i
O=C(NCc1ccco1)C(Cc1ccccc1)N1C(=O)C2C3C=CC(C3)C2C1=O (stereo not drawn)	i
